Screening data from PubChem.
ALR inh = inhibitors of human sulfhydryl oxidase ALR | AID 485317 | purified ALR, DTT oxidation, H2O2 HRP-luminol luminescence | hit rate 3.8% among 290,000 | inhibition, % (test concentration not listed);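 active = mean and each replicate at 75% or more; inconclusive = only one of the two met; inactive = neither met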;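 also: stock transfer was 7.5 nL into about 7.5 µL; 0% = neutral wells and 100% = wells with inactivated enzyme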
Target sequence (P55789 whole entry, looked up): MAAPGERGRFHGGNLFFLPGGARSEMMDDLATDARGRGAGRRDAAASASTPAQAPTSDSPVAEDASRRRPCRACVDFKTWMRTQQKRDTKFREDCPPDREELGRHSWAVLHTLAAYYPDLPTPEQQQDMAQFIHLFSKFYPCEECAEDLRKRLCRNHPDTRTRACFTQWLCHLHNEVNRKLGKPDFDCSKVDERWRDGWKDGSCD
T cruzi inh = T. cruzi replication inhibition; T. cruzi beta-gal in NIH3T3, luminescence, 90 h; inhibition, % (no concentration beside the values); hit rate 1.4% among 300,000; AID 1885;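 active = mean inhibition across valid replicates above about 55%, limit read from the data; inconclusive = mean below that limit but half or more replicates reach it; inactive = mean below it, under half of replicates reach it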;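 also: signal also drops with host cell toxicity which is not excluded here; 0% = plate median of DMSO wells and 100% = zero luminescence signal; higher percent means less beta-gal luminescence so fewer parasites; stock transfer was 50 nL into about 50 µL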
Beta cell apopt = beta cell apoptosis inhibition; protection from apoptosis, % (no concentration beside the values); hit rate 0.8% among 300,000; INS-1E cytokine-induced death, ATP luminescence, 48 h; percent of positive-control rescue, neutral wells zero;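 active = all replicates at 75% or more, or half of them and the mean; inconclusive = half reach 75% but not the mean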;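 also: 0% = cytokine-treated negative control wells and 100% = positive control rescue; higher means more ATP so stronger rescue from cytokine killing; wells of about 40 µL received 100 nL stock; the first replicate is given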
Calb FLC = affects C. albicans growth with fluconazole. C. albicans CaCi-2 (fluconazole-resistant clinical isolate) + fluconazole, Alamar Blue growth, 48 h. growth inhibition, % (no concentration beside the values). hit rate 0.57% among 300,000;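 active = most replicates above 75%; inconclusive = exactly half above 75%; inactive = most below 75%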;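 also: all wells also contain fluconazole at 8 µg/ml as a sub-toxic cotreatment; 0% = median of DMSO wells and 100% = median of geldanamycin control wells; wells of about 8 µL received 7.5 nL stock; the first replicate is given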
B2AR ag = agonists of human beta-2 adrenergic receptor inducing internalization; P07550; Am2.2-beta2AR cells, FAP receptor internalization, flow cytometry; reference of the scale not given here; response, % (test concentration not listed); hit rate 0.43% among 340,000; AID 504454;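 active = response above a set limit, near 3 SD of response in nonfluorescent compounds, cut at about 42% in these data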;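 also: stock transfer was 100 nL into about 11 µL; a reference agonist was the positive control; negative values mostly stem from fluorescent compounds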
Target sequence (P07550 whole entry, looked up): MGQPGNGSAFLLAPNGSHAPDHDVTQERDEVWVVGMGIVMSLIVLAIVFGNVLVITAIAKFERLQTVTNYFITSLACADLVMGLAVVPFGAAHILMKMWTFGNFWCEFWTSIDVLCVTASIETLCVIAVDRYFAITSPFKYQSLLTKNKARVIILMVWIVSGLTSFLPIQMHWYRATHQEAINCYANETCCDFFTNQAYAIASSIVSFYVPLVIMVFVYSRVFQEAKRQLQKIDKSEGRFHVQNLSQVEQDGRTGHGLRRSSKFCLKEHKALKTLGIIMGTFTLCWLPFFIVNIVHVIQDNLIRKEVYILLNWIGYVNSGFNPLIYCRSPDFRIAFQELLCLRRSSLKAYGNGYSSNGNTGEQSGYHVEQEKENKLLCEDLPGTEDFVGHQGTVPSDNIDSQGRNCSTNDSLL
A1 inh = inhibitors of the anti-apoptotic protein A1, read as caspase activation; MEF A1-2A-BIM cells, Caspase-Glo 3/7 luminescence, 3 h; percent of clofoctol response, vehicle zero; caspase activation, % (concentration not given with the values); hit rate 0.066% among 330,000;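 active = over half of replicate activation scores above 10%, or exactly half above 10 with the replicate mean above 10; inconclusive = replicate mean below 10 yet half the replicates above 10; inactive = over half of replicates below 10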;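 also: wells of about 30 µL received 50 nL stock; many hits fall short of the cut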
rRNA inh HTS = selective bacterial rRNA inhibition in E. coli. GFP signal change (wild-type ribosome), % (test concentration not listed). hit rate 1.6% among 350,000. AID 720706. E. coli WT GFP vs humanized-ribosome RFP mutants, fluorescence, 24 h; active compounds read low; DMSO median 0, no signal -100;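 active = significant combined selectivity score with lowered wild-type GFP, culture density cut under 30%, mutant RFP and density less affected; inactive = any of these conditions unmet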; also: one replicate is shown; some compounds called inactive have numbers as strong as hits
LANA-H2B inh = blocks KSHV LANA binding to histone H2A/H2B. Q9QR71. cell-free LANA-H2A/H2B peptide, fluorescence polarization. inhibition, % (no concentration beside the values). hit rate 0.6% among 320,000. AID 2629; in the data active = inhibition mostly above about 10%, no sharp cut-off; inactive = mostly below about 6.7%;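 also: stock transfer was 7.5 nL into about 10 µL; 0% = median of vehicle wells and 100% = median of positive control wells; one replicate is shown; the record names a cut of 25% in any replicate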
rRNA inh HTS OD600 = further read-out of rRNA inh HTS, marked with its call; OD600 change, %; measured here: OD600 growth;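 optical density of the mix in the first replicate; 0 = DMSO median and -100 = no signal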
rRNA inh HTS RFP = recorded beside rRNA inh HTS, whose call it bears; RFP signal change, %; measured here: RFP humanized mutant strains;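 first replicate; 0 = DMSO median and -100 = no signal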
Starred values were filed as active, the others as inactive; ? = inconclusive; · = not tested or not shown. The list is partial; count on the stated rates, not on these rows.

Molecule	ALR inh	T cruzi inh	Beta cell apopt	Calb FLC	B2AR ag	A1 inh	rRNA inh HTS	rRNA inh HTS OD600	rRNA inh HTS RFP	LANA-H2B inh
CC(=NNC(=O)c1ccc2nc[nH]c2c1)c1ccc(Br)cc1	·	·	1	·	1	-0.1	4	12	2.2	2.8
CCc1ccccc1NC(=O)C(Cc1ccccc1)c1nn[nH]n1 (centres undefined)	1	-9	·	3	4	0.4	9	0	-2.0	0.6
O=C(Cc1ccccc1)Nc1ccc(C(=O)NCC2COc3ccccc3O2)cc1 (centres undefined)	-3	4	17	15	-13	0.3	·	·	·	1.7
O=C(OC1CCOC1=O)c1cc(-c2ccccc2)nc2ccccc12 (centres undefined)	-3	-10	-1	7	-6	0.4	·	·	·	-2.2
CC(C)(C)Nc1c(N)c(=O)oc2ccccc12	72	-7	0	-1	1	-0.1	·	·	·	4.0
CC(C)(CC(=O)O)CC(=O)N1CCN(c2nc3ccc(Cl)cc3s2)CC1	0	-9	4	2	7	-1.7	·	·	·	2.6
COc1cccc(C(=O)/C=C/c2ccc(OCC#N)c(OC)c2)c1	·	-20	-12	16	8	0.2	·	·	·	·
O=S(=O)(c1ccc(Cl)cc1)N1CCN(S(=O)(=O)N2CCCCCC2)CC1	-12	14	-2	1	10	0.4	11	12	3.1	-0.9
Cc1ccc(C(=O)Nc2ncc(Cc3ccc(F)cc3)s2)o1	·	-15	-1	-7	2	-5.0	·	·	·	2.5
O=C(N1CCOCC1)N1CCC(c2nc(-c3ccc(S(=O)(=O)N4CCOCC4)cc3)no2)CC1	2	-12	-5	2	3	-0.5	·	·	·	-5.3
O=C(Nc1ccc(N2CCOCC2)cc1)c1ccc(-c2ccccc2[N+](=O)[O-])o1	-33	16	9	32	16	0.4	·	·	·	-2.8
Cc1nn(Cc2c(F)c(F)c(F)c(F)c2F)c(C)c1NC(=O)c1cccc(COc2ccccc2Cl)c1	2	33	12	-4	14	-0.4	·	·	·	-5.0

Single entries from above.
Entry for CC(C)(CC(=O)O)CC(=O)N1CCN(c2nc3ccc(Cl)cc3s2)CC1 in A1 inh: -1.7
Entry for Cc1nn(Cc2c(F)c(F)c(F)c(F)c2F)c(C)c1NC(=O)c1cccc(COc2ccccc2Cl)c1 in Beta cell apopt: 12
Entry for CC(=NNC(=O)c1ccc2nc[nH]c2c1)c1ccc(Br)cc1 in rRNA inh HTS OD600: 12

(list continues)
Molecule	ALR inh	T cruzi inh	Beta cell apopt	Calb FLC	B2AR ag	A1 inh	rRNA inh HTS	rRNA inh HTS OD600	rRNA inh HTS RFP	LANA-H2B inh
C/C(N)=C(/C#N)C(=O)CSc1nnc(Nc2ccccc2)s1	42	15	8	?	22	-0.3	-4	0	-1.7	2.3
OCC1(Cc2ccccc2)CCCN(Cc2cnn(-c3ccccc3)c2)C1 (centres undefined)	0	29	-5	-3	4	-0.5	9	1	1.9	-5.5
CCCCn1c(=NC(=O)c2ccco2)c(C(=O)OCC)cc2c(=O)n3cccc(C)c3nc21	·	-10	·	10	13	-1.2	-4	-9	0.4	-1.7
COc1ccc(CN2CCNC(=O)C2CC(=O)NC2CCCC2)c(C)c1C (centres undefined)	2	5	-2	0	-2	-0.5	23	12	4.0	3.7
N#CC1=C(N)C(C#N)(C#N)C(c2ccc[nH]2)C2CCCC=C12 (centres undefined)	-26	-8	-8	2	10	0.5	13	-7	26	0.0
COc1ccc(C(=O)NC2CCN(S(=O)(=O)c3ccccc3F)CC2)cc1	1	3	-9	2	-5	-0.3	3	6	-4.9	-3.8
Cc1cccc(OCCCC(=O)NCC(=O)Nc2cccc(C)c2C)c1	-3	-2	0	-3	0	-0.2	-4	3	1.3	3.3
COc1ccc(NC(=O)CCNS(=O)(=O)c2ccc3c(c2)CC(C)N3C(C)=O)cc1 (centres undefined)	-9	2	·	8	11	-0.5	4	3	2.1	0.5
C#CCOCCOCCOCCNc1nc(N2CCN(C(=O)C([C@@H](C)CC)n3cc(C(N)CC(C)C)nn3)CC2)nc(N2CCN(C(=O)[C@H](CCC(=O)O)n3cc(C(N)[C@H](C)CC)nn3)CC2)n1 (some centres undefined)	-34	-2	-8	5	-4	-1.2	19	5	6.2	0.3
CCOc1ccc2[nH]cc(C(=O)NCCc3ccccc3)c(=O)c2c1	·	21	1	4	-8	-0.9	-14	-7	0.7	-0.7
O=C(NCC1CCCO1)c1ccccc1OCc1ccc(Cl)cc1 (centres undefined)	61	3	-3	-6	0	0.0	-17	-16	-2.8	-7.5
COc1ccc(Cl)cc1NC(=O)N1CCN(c2ccccc2OC)CC1	-8	3	4	2	0	0.3	-30*	-14*	-6.1*	-1.7

Following part.
Molecule	ALR inh	T cruzi inh	Beta cell apopt	Calb FLC	B2AR ag	A1 inh	rRNA inh HTS	rRNA inh HTS OD600	rRNA inh HTS RFP	LANA-H2B inh
CCOc1ccc2c(c1)sc(N)[n+]2Cc1cc(C)cc2cccnc12	-1	-18	63	1	25	-0.7	·	·	·	2.3
Cn1c(SCC(=O)Nc2ccccc2)nnc1C(F)(F)F	-4	-8	-10	-17	-7	0.6	2	6	0.5	-2.2
CC(=O)NCC(=O)NNC1CC(=O)N(c2cccc(Cl)c2)C1=O (centres undefined)	29	-15	·	13	7	-0.3	7	6	-1.0	5.8
Cc1cc(Cl)ccc1NC(=O)CN1C(=O)NC2(CCCc3ccccc32)C1=O (centres undefined)	0	2	-3	-10	4	0.1	0	4	0.5	2.4
O=C(CCC(=O)Nc1ccccc1)N/N=C/c1cccnc1	-2	-9	-3	5	2	-0.1	-13	-6	-2.0	9.0
Cc1nnc(NN)n(N)c1=O	12	·	-1	-1	-2	0.0	11	2	1.7	-0.3
CC(C)c1ccc(-c2csc3ncnc(N4CCN(C)CC4)c23)cc1	·	12	12	-6	1	0.7	-28*	-22*	-0.6*	4.4
Cc1[nH]c(=O)c(S(=O)(=O)c2ccccc2)c(C)c1Cl	-17	-2	-2	-7	-5	0.9	4	7	0.3	-2.0
CC1CCN(C(=O)c2[nH]cnc2C(=O)N2CCN(c3ccccc3)CC2)CC1	39	·	-2	·	-4	0.7	3	8	-4.2	5.4
Cn1nccc1NC(=O)Nc1ccccc1	·	-1	·	9	-5	0.7	·	·	·	-0.1
CC(C)CN1CCN(Cc2cccn2-c2cccnc2)CC1CCO (centres undefined)	-1	-9	0	-1	1	1.5	·	·	·	0.9
COc1cc(/C=N/n2nnnc2Nc2ccccc2)cc(OC)c1OC	-2	23	9	1	-3	0.8	·	·	·	-4.1

(continued)
Molecule	ALR inh	T cruzi inh	Beta cell apopt	Calb FLC	B2AR ag	A1 inh	rRNA inh HTS	rRNA inh HTS OD600	rRNA inh HTS RFP	LANA-H2B inh
COc1ccccc1CCC(=O)NNC(=O)c1cccs1	-10	·	-3	·	4	0.0	11	6	4.0	-0.7
N#C/C(=C\N1CCCCC1)S(=O)(=O)c1ccc(Cl)cc1	0	·	-4	-16	-2	0.4	-6	-11	2.1	1.6
CC(C)N(C(=O)c1ccc(C(=O)Nc2ccc([N+](=O)[O-])cc2)cc1)C(C)C	0	-9	2	-13	2	0.2	·	·	·	1.0
NNC(=S)Nc1c(Br)cc(F)cc1Br	·	-35	-5	-6	8	0.3	9	-2	3.6	0.8
CCN(CC)S(=O)(=O)c1ccc(C(=O)N2CCN(C3=NS(=O)(=O)c4ccccc43)CC2)cc1	0	1	-1	-10	-2	-0.6	5	8	-3.4	4.6
COCc1c(C(=O)N2CCN(Cc3ccc(C#N)cc3)CC2)oc2ccccc12	0	10	-3	14	-3	-0.4	-5	-4	-1.1	0.2
CCCCCCc1nnc(NC(=O)OCC)s1	-19	4	0	9	-7	0.5	·	·	·	-0.4
O=C(c1ccco1)N1CCN(c2ccc(Cl)cc2)CC1	70	-14	3	5	1	-3.8	·	·	·	0.4
Cc1ccc(N(O)C(=O)OCCNC(=O)Nc2ccccc2)cc1	21	1	-5	19	4	0.2	·	·	·	2.3
Cc1cc(=O)oc2c(C)c(OCC(=O)NCCCN3CCOCC3)ccc12	-2	-21	6	5	9	-0.8	3	9	0.2	-0.7
COc1cc(C(C(=O)NC(C)(C)C)N(C(=O)CNC(=O)c2cccs2)c2ccccc2)cc(OC)c1OC (centres undefined)	3	11	0	-5	-10	-0.7	·	·	·	-7.6
COc1ccc(NCCNc2ccc(OC)cc2)cc1	?	30	39	-7	4	0.5	·	·	·	-1.1

Later entries
Molecule	ALR inh	T cruzi inh	Beta cell apopt	Calb FLC	B2AR ag	A1 inh	rRNA inh HTS	rRNA inh HTS OD600	rRNA inh HTS RFP	LANA-H2B inh
Cc1ccc(S(=O)(=O)N(C)C)cc1NC(=O)COC(=O)COc1ccccc1[N+](=O)[O-]	-1	-15	-8	-11	0	0.9	24	25	0.5	3.9
Cc1ccc(NC(=O)c2cccc(NC(=O)/C=C/c3ccco3)c2)cc1C	0	-4	6	-5	12	-4.1	·	·	·	-5.7
S=C(NCCc1ccccc1)NN=C1CCCCCC1	9	7	7	-31	-2	-1.9	-1	3	4.9	-0.1
S=C(NCc1ccccc1Cl)Nc1ccccc1Cl	0	1	-4	-12	-2	-0.3	-40	-60	-11	-3.5
O=C(c1ccccc1)c1ccncc1	·	2	-6	-2	-22	-0.3	·	·	·	-4.7
CCn1c(SCC(=O)Nc2nc(C)cs2)nnc1-c1ccco1	·	-5	4	-16	-10	0.8	·	·	·	-0.9
CC(=O)Nc1ccccc1C(=O)C(=O)Nc1ccc(F)cc1	-8	-3	-8	5	-3	0.0	·	·	·	-3.5
COC(=O)c1c(NC(=O)c2nc3ccccc3s2)sc2c1CCN(C(C)=O)C2	-3	·	2	·	0	0.0	·	·	·	-2.1
